A488 autofl – A488 region autofluorescence; 59,000 tested, 0.1% active; compound autofluorescence, A488 spectral region, dye equivalency; stronger effect = higher value; max dye equivalency, M; active = above 10 nM dye equivalent; inconclusive = 1 to 10 nM; inactive = 1 nM or less; about half of its hits are not listed in these tables;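 also: highest value over a series up to 38 µM; compound alone in buffer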
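Intrinsic compound fluorescence is measured in 100 mM Tris buffer at pH 8.0 following 15 min incubation at room temperature. Intensities at 480 nm excitation/540 nm emission are calibrated to an on-plate A488 concentration series, giving dye-equivalent concentrations.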
Resorufin fluor – resorufin region autofluorescence; Compound fluorescence, resorufin region 547/598 nm, buffer; stronger effect = higher value; max dye-equivalent concentration, M; 59,000 tested, 0.04% active; active = above 10 nM dye equivalent; inconclusive = 1 to 10 nM; inactive = 1 nM or less; a few of its hits are not listed in these tables; also: highest value over a series up to 38 µM
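Read-out: intrinsic compound fluorescence at ex 547/em 598 nm after 15 min at RT in pH 8.0 Tris (100 mM). Values expressed as resorufin-equivalent concentration from per-plate standard series.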
TSHR ag – activates the human thyroid stimulating hormone receptor | HEK293-CNG-TSHR cells (CNG channel as cAMP sensor), membrane potential dye, cAMP | Potency, µM (top dose mostly 57.1 µM), without a hit: at the highest dose activation, most hits filed as activators | 73,000 tested, 0.48% active | AID 926; active = well fitted activation curve of enough size with the parental cells flat; inconclusive = any curve in the parental cells; inactive = parental cells flat and receptor cells flat or falling; also: potency is read from the fitted curve at half-maximal effect; % of control where 0% means no effect; weak receptor curves with flat parental cells got no call and are not listed
Target sequence (P16473 whole entry, looked up): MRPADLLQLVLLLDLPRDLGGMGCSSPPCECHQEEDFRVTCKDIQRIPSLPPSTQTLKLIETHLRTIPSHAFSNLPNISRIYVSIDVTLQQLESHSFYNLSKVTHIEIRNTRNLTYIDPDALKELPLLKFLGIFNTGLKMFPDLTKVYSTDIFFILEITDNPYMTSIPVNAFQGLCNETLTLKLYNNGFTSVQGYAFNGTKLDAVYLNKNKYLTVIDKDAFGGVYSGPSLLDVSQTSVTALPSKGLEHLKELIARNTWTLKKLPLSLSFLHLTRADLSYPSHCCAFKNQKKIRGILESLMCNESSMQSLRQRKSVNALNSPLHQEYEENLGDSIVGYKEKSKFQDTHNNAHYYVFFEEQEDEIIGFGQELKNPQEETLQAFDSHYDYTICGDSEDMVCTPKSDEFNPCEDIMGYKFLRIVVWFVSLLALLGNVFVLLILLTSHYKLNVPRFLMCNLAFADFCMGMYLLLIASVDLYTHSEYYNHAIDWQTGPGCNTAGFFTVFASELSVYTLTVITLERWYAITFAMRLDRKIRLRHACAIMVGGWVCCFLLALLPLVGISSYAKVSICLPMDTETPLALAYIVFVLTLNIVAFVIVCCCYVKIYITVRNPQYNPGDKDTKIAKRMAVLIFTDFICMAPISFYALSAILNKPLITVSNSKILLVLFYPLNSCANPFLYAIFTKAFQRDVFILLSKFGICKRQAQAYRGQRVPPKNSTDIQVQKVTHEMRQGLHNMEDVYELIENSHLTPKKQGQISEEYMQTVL
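cAMP rise detected as CNG-channel membrane depolarization by fluorescent dye (emission 590 nm), 30 min after compound, following 60 min dye loading containing 100 uM RO 20-1724 at room temperature. Cells: TSHR/CNG HEK 293, with parental CNG HEK 293 as control.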
A647 fluor – compound autofluorescence in A647 spectral region. max dye-equivalent concentration, M. 59,000 tested, under 10 active. Compound fluorescence, A647 channel (570/671 nm), Tris buffer. AID 592; active means above 1 µM dye equivalent; inconclusive means 0.1 to 1 µM; inactive means 0.1 µM or less;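 also: values scaled relative to a standard on each plate; highest value over a series up to 38 µM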
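Buffer was dispensed, compounds and Alexa 647 standards were pin-transferred, and plates sat 15 min at room temperature. Intensity at 570/671 nm was then converted to dye-equivalent concentration using the plate's A647 standard curve.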
AID923 – qHTS Assay for Allosteric/Competitive Inhibitors of Caspase-1: Spectroscopic Profiling in AFC Spectral Region | Potency, µM (top dose mostly 57.5 µM), inactives show at the top dose fluorescence increase, usual class: activators | 75,000 tested, 1.1% active | compound fluorescence, AFC spectral region (405/520 nm); almost no hit is shown here; active = well fitted activation curve with a large enough effect; inconclusive = small, poorly fitted or top-dose-only effect;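 also: potency is read from the fitted curve at half-maximal effect; 0% is about no effect; scaled to a free AFC standard on each plate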
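Titrations up to 57 uM read every 20 sec for 3 min (405/520 nm) with 50 nM caspase 1 and 5 uM Ac-WEHD-AFC, pH 7.5 HEPES buffer. Fluorescence-vs-time intercept gave baseline, scaled against on-plate AFC standard.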
Starred values were filed as active, the others as inactive; i = inactive; ? = inconclusive; . = not tested or not shown; [ ] = another dose, or the depositor's remark.

nr	Molecule	A488 autofl	Resorufin fluor	TSHR ag	A647 fluor	AID923
1	COc1ccc(CCNC(=O)CSc2nncn2N)cc1OC	i	i	-3%	1.5e-08	0.0%
2	COCCn1nnnc1CN1CCC(NC(=O)Nc2cccc(OC)c2)CC1	i	i	0%	4.1e-08	-0.9%
3	CSCC[C@H](NC(=O)OC(C)(C)C)c1nnc(SCC=C(C)C)o1	i	i	16%	1e-09	-0.9%
4	CC(C)COc1ccc(C(=O)OC2CC(C)(C)OCC2CN(C)C)cc1 (centres undefined)	i	i	?	2.4e-08	-1.5%
5	O=c1c2c3c(sc2nc2n1CCCS2)CCCC3	i	i	.	2.1e-09	.
6	COc1ccc(C(C)NC(=O)c2ccoc2C)cc1OC (centres undefined)	i	i	4%	9.1e-09	-1.5%
7	O=C(Nc1cccc2c1CCCC2)c1ccc(Br)o1	.	.	?	.	-0.1%
8	CCOC(=O)CSC1=C(C#N)C(c2sccc2C)CC(=O)N1 (centres undefined)	i	i	?	7e-09	0.5%
9	COc1ccccc1NC(=O)CSc1nc(N)cc(N)n1	i	i	4%	3.4e-09	1.4%
10	Cc1nc2ncnn2c(C)c1CCC(=O)NC(C)c1ccc2c(c1)OCCO2 (centres undefined)	i	i	.	2.2e-08	-4.8%
11	Cn1c(=O)c2c(nc(NC3CCCCC3)n2CC(O)COc2ccccc2)n(C)c1=O (centres undefined)	i	i	2%	1e-09	-1.7%
12	N#Cc1nc(-c2cccs2)oc1N1CCOCC1	i	i	8%	3.3e-08	-2.3%
13	O=C(CN1CCOc2ccccc21)NC1CC1	.	.	0%	.	1.4%
14	CC(=O)c1cccc(NC(=O)NCc2cccs2)c1	i	i	2%	2.6e-08	-2.3%
15	CCCCn1c(SCC(=O)N2CCN(c3ccccc3)CC2)nc2ccsc2c1=O	i	i	?	2.7e-08	1.0%
16	CCOC(=O)C1=C(CC)Nc2ccccc2N=C1NC(=O)c1cccc(S(=O)(=O)N2CCCC2)c1	i	i	?	1e-09	-0.6%
17	OCCNCc1ccc(OC2CCCC2)cc1	i	i	?	5.1e-09	-0.9%
18	O=C(O)c1cc(S(=O)(=O)N2CCCCC2)ccc1F	i	i	24%	1e-09	-0.4%
19	O=C(C1CCCN(S(=O)(=O)c2ccc(F)cc2)C1)N(Cc1cccs1)C1CC1 (centres undefined)	i	i	.	2.2e-09	-1.0%
20	CCC#CCOCC(=O)Nc1ccccc1	.	.	0%	.	1.1%
21	CCOc1ccc(NC(=O)CCN2CCN(c3ccccc3OC)CC2)cc1	i	i	19%	2.3e-08	-1.8%
22	O=c1c2c(nc3n1CCCCC3)sc1c(O)cccc12	i	i	-9%	3.9e-09	5.0%
23	Nc1nc(CC(=O)O)cs1	.	.	-1%	.	11%
24	O=C(O)c1ncn(Cc2ccccc2)c1C(=O)O	i	i	?	1e-09	0.7%
25	O=C(c1cc(-c2ccco2)on1)N1CCc2ccccc2C1	i	i	?	8.3e-09	-3.2%

Part of the list above, with two lines to a compound:
Values run as follows: A488 autofl	Resorufin fluor	TSHR ag	A647 fluor	AID923
(15) CCCCn1c(SCC(=O)N2CCN(c3ccccc3)CC2)nc2ccsc2c1=O
 : i	i	?	2.7e-08	1.0%
(12) N#Cc1nc(-c2cccs2)oc1N1CCOCC1
 : i	i	8%	3.3e-08	-2.3%
(14) CC(=O)c1cccc(NC(=O)NCc2cccs2)c1
 : i	i	2%	2.6e-08	-2.3%
(25) O=C(c1cc(-c2ccco2)on1)N1CCc2ccccc2C1
 : i	i	?	8.3e-09	-3.2%

(cont.)
nr	Molecule	A488 autofl	Resorufin fluor	TSHR ag	A647 fluor	AID923
26	C=C(C)[C@H]1CC=C(C)C(=O)C1	.	.	6%	.	1.5%
27	CN(C)CCCN1C(=O)C(=O)/C(=C(/O)c2ccncc2)C1c1cccnc1 (centres undefined)	i	i	4%	4.5e-09	0.0%
28	CCn1cc(C(=O)NCCCN2CC(C)CC(C)C2)c(=O)c2cc(S(=O)(=O)N(C)C)ccc21 (centres undefined)	.	.	-16%	.	-1.5%
29	COc1ccccc1-n1c(SCC(N)=O)nnc1-c1ccc(S(=O)(=O)N2CCCCC2)cc1	i	i	-6%	6e-08	0.6%
30	CCNc1ccccc1	.	.	10%	.	0.0%
31	COCCOC(=O)C1=C(C)N=C2SCCC(=O)N2C1/C=C/c1ccccc1 (centres undefined)	i	i	15%	2e-09	1.1%
32	O=C(O)c1cc2c(cc1S(=O)(=O)O)[C@H]1[C@@H]([C@H]3[C@H]2[C@@]2(Cl)C(Cl)=C(Cl)[C@]3(Cl)C2(Cl)Cl)[C@]2(Cl)C(Cl)=C(Cl)[C@@]1(Cl)C2(Cl)Cl	i	i	2%[11.4 µM]	6.9e-09	-2.5%[11.5 µM]
33	CCCN1Cc2cccc(C(=O)Nc3ccc4c(c3)OCCO4)c2C1=O	.	.	3%	.	2.5%
34	CCOC(=O)N1CCN(CC(O)c2ccc3cc[nH]c3c2)CC1 (centres undefined)	.	.	?	.	0.4%
35	COc1ccc2cc(S(=O)(=O)N3CCCCC3)ccc2c1S(=O)(=O)N1CCCCC1	i	i	5%	3.4e-08	-2.7%
36	CCCOc1ccccc1C1CC(=O)Nc2cc3c(cc21)OCCO3 (centres undefined)	i	i	.	1e-09	0.3%
37	c1ccc(-c2oc3ncnc(N4CCOCC4)c3c2-c2ccccc2)cc1	i	i	?	2.6e-08	0.7%
38	COC(=O)c1c(C(=O)OC)c2cc(C)ccn2c1Cl	i	i	?	1.9e-09	4.2%
39	CC1CCCCC1NC(=O)CSc1nnc(CN2CCOCC2)n1C (centres undefined)	i	i	7%	1e-09	-1.7%
40	CC(NC(=O)CC1Nc2ccccc2NC1=O)c1ccccc1 (centres undefined)	i	i	1%	8e-09	0.9%
41	CNc1ccnc(-c2ccccc2C(F)(F)F)n1	i	i	7%	1.1e-08	-1.0%
42	CCN1C(=O)CC(Sc2ccccc2N)C1=O (centres undefined)	i	i	.	4.7e-08	0.0%
43	COc1ccc(CNc2ncncc2-c2cccnc2)c(OC)c1	i	i	10%	3.3e-09	2.8%
44	O=C(CNC(=O)c1ccco1)OCc1ccc(Cl)cc1	.	.	-5%	.	-1.5%
45	Cc1nc2sc(C(c3cccs3)N3CCC(C(N)=O)CC3)c(O)n2n1 (centres undefined)	.	.	-3%	.	-2.3%
46	N=C(N)SCCN1CCCCC1	i	i	?	8.4e-09	3.5%[11.5 µM]
47	O=C(C[C@@H](C(=O)O)N1CCOCC1)c1ccccc1	i	i	-6%[11.4 µM]	1e-09	2.6%[11.5 µM]
48	CC(=O)Nc1ccccc1C(=O)N1CC2(C)CC1CC(C)(C)C2 (centres undefined)	i	i	17%	1e-09	2.7%
49	CCOC(=O)Cn1c(=O)oc2cc(S(=O)(=O)NCCc3ccc(OCC)c(OCC)c3)ccc21	i	i	-7%	7.7e-09	0.0%
50	CC(C(=O)N1c2ccc(F)cc2CCC1C)N1C(=O)c2ccccc2C1=O (centres undefined)	i	i	3%	1e-09	0.1%
51	C[C@H]1COC(=O)[C@H](Cc2ccccc2)NC(=O)[C@@H](C)COC(=O)[C@H](Cc2ccccc2)NC1=O	.	.	4%[11.4 µM]	.	-0.9%[11.5 µM]
52	COc1ccc(N2CCN(C(=O)CN=C3NS(=O)(=O)C(c4ccc(C)cc4)=C3C)CC2)cc1	.	.	2%	.	1.0%
53	Cc1ccc(CCN2CC(C(=O)NCc3cccnc3)CC2=O)cc1 (centres undefined)	.	.	-2%	.	-1.6%
54	COc1ccc(C(=O)Nc2ccc(S(=O)(=O)Nc3onc(C)c3C)cc2)cc1	i	i	-4%	1.9e-08	1.5%
55	O=C(O)CNCC1COc2ccccc2O1 (centres undefined)	i	i	9%	4.9e-08	-0.4%
56	O=C(CCNS(=O)(=O)c1cccs1)N1CCCCCC1	i	i	5%	8.5e-09	0.2%
57	CC(C)OC(=O)CSc1nnnn1-c1ccc2c(c1)OCCO2	i	i	3%	4.1e-08	-3.8%
58	Cc1cc(C)n(-c2nc3ccccc3nc2Nc2ccc3c(c2)OCO3)n1	.	.	27%	.	20%
59	CCCn1c(N2CCN(CC(=O)NCc3cccs3)CC2)nc2ccccc21	i	i	9%	6.2e-09	1.8%
60	CCSC[C@@H](N)C(=O)O	i	i	1%[11.4 µM]	1e-09	3.3%[11.5 µM]
61	Cc1ccc(-c2nc3s/c(=C\c4ccco4)c(=O)n3n2)cc1	i	i	-6%	2.2e-08	0.2%
62	O=C(Nc1ccccc1)N(Cc1ccc2c(c1)OCO2)Cc1nc2ccccc2c(=O)[nH]1	i	i	.	5.6e-08	0.8%
63	CC(=O)c1cccc(NC(=O)CN(c2ccc(F)cc2)S(C)(=O)=O)c1	.	.	-1%	.	3.9%
64	COc1ccc(Br)cc1C(=O)Nc1cccc(NC(=O)c2ccco2)c1	.	.	17%[11.4 µM]	.	0.9%
65	Cc1nonc1NC(=O)OCCN1CCOC1=O	i	i	1%	8.8e-09	1.3%
66	CC1CCCCN1CCNC(=O)Cn1nc(-c2ccccc2)ccc1=O (centres undefined)	i	i	17%	1e-09	0.6%
67	COc1ccc(NC(=O)CN2CCCCC2)cc1	i	i	-6%[11.4 µM]	1e-09	-1.1%
68	CCSc1nc2c(c(=O)[nH]1)C(c1ccccn1)C1=C(CC(C)(C)CC1=O)N2 (centres undefined)	i	i	-3%	3.4e-08	10%
69	COc1ccc(-c2nnnn2CCc2ccccc2)cc1	i	i	29%	5.6e-09	0.3%
70	CCC(=O)N1CCc2cc(S(=O)(=O)N(CC)c3cccc(C)c3)ccc21	i	i	?	4e-09	-1.0%
71	CC(C)N1CCN(c2ccncc2S(=O)(=O)N2CCCCC2)CC1	i	i	?	1e-09	-1.9%[11.5 µM]
72	COP(C)(=O)c1c(C)nn(-c2ccccc2)c1C (centres undefined)	i	i	2%	8.8e-09	-0.9%
73	C=C(Br)Cn1c(CCCC)nc2ccccc21	i	i	.	2.6e-08	.
74	CCc1ccc(NC(=O)C2CC(=O)N(C(C)C)C2)cc1 (centres undefined)	i	i	-1%	1.7e-08	0.0%
75	Cn1c(=O)cc(NCCc2ccccc2)[nH]c1=O	.	.	-7%	.	2.3%

Further results.
nr	Molecule	A488 autofl	Resorufin fluor	TSHR ag	A647 fluor	AID923
76	CC(=O)c1c(C(C)=O)c(C)n(-c2nc(-c3ccccc3)c(C)s2)c1C	.	.	21%	.	0.8%
77	O=C(NC1c2ccccc2-c2ccccc21)c1ccco1	i	i	?	1.8e-09	2.3%
78	CCC(NC(=O)NCc1cccnc1)(C(F)(F)F)C(F)(F)F	i	i	10%	1.7e-08	-2.3%
79	COC(=O)Cn1c2ccccc2c2nc(C)sc21	i	i	23%	4.9e-09	0.2%
80	S=C(Nc1ccccc1)Nc1ccccc1C#Cc1ccccc1	.	.	12%	.	2.1%
81	O=c1[nH]c(SCC2CCCCO2)nc2ccccc12 (centres undefined)	i	i	2%[11.4 µM]	2.9e-08	-1.6%
82	Cc1ccnc(NC(=O)c2c(O)c3ccccc3n(C)c2=O)c1	i	i	23%	2.8e-08	-0.3%
83	COc1ccc(OC)c(NC(=O)CN2C(=O)C3(OCCCO3)c3ccccc32)c1	i	i	15%	2.2e-08	-0.7%

Reformatted: entries from further up
[80] S=C(Nc1ccccc1)Nc1ccccc1C#Cc1ccccc1
[81] O=c1[nH]c(SCC2CCCCO2)nc2ccccc12 (centres undefined)
[82] Cc1ccnc(NC(=O)c2c(O)c3ccccc3n(C)c2=O)c1
compound no.	80	81	82
A488 autofl	.	i	i
Resorufin fluor	.	i	i
TSHR ag	12%	2%[11.4 µM]	23%
A647 fluor	.	2.9e-08	2.8e-08
AID923	2.1%	-1.6%	-0.3%

Screening results: PubChem, National Center for Advancing Translational Sciences (NCATS)

Not all compounds are listed (hit frequency here may not be typical).
